DUX4 txn inh = inhibitors of DUX4-driven ZSCAN4 reporter expression, primary screen, 293T cells, Gaussia and Italica luciferase; 293T-iDUX4 ZSCAN4-Gaussia luciferase reporter, 24 h; hits give low values; 37,000 tested, 0.8% active; AID 1224904, 2016; activity change, negative = inhibition, % (no concentration beside the values);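 active = -10% or lower and over 25 points stronger than a control reporter; inconclusive = -10% or lower with a smaller gap; inactive = above -10%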;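 also: 0% = median of neutral control wells and -100% = median of positive control wells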
DUX4 txn inh difference = further read-out of DUX4 txn inh, marked with its call; Gaussia minus Italica difference, %; measured here: selective DUX4 reporter inhibition;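 worked out from the two reporters; negative = selective loss of the DUX4 reporter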
DUX4 txn inh control = recorded beside DUX4 txn inh, whose call it bears; activity change, negative = inhibition, %; measured here: Italica tet-on control reporter;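 0 = neutral control and -100 = positive control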
The depositor's hits bear a star; ? = inconclusive; . = not tested or not shown; & = joins results of further samples.

SMILES	DUX4 txn inh	DUX4 txn inh difference	DUX4 txn inh control
C[C@H]1CN([C@@H](C)CO)C(=O)c2cc(C#Cc3cccnc3)cnc2O[C@H]1CN(C)S(C)(=O)=O	-2	-5	3.1
COc1ccc2c3c(n(C)c2c1)[C@H](CO)NCC31CCN(S(=O)(=O)c2ccccc2)CC1	2	-7	9.4
COC(=O)C[C@@H]1CC[C@H]2[C@H](COc3ccc(NC(=O)c4cccc(Cl)c4)cc3C(=O)N2C)O1	1	3	-1.9
Cn1cnc(S(=O)(=O)N2[C@@H]3CNC[C@H]2C3c2ccc(-c3ccncc3)cc2)c1 (some centres not stated)	22&15	17&25	4.8&-10
O=S(=O)(c1ccccc1)N1C[C@@H]2[C@H](c3ccccc31)[C@H](CO)N2Cc1ccccc1	0	-3	3.2
C[C@H](CO)N1C[C@H](C)[C@@H](CN(C)CC2CCOCC2)Oc2cc(C#Cc3ccccc3F)ccc2S1(=O)=O	?	.	.
Fc1cccc(-c2ccc(C3[C@H]4CNC[C@@H]3N4Cc3ccccn3)cc2)c1 (some centres not stated)	3	9	-6.3
O=C(CN1CCOCC1)NCC[C@@H]1CC[C@@H](NC(=O)Cc2ccccn2)[C@@H](CO)O1	-4	-9	5.4
C[C@H]1CN([C@@H](C)CO)C(=O)c2cc(NC(=O)NC3CCCCC3)ccc2O[C@H]1CN(C)S(C)(=O)=O	-3	-3	0.6
C[C@@H]1CN([C@H](C)CO)C(=O)CCCn2nncc2CO[C@@H]1CN(C)S(=O)(=O)c1ccc(Cl)cc1	-4	-5	1.4
O=C(C1CCOCC1)N1CC2(C1)[C@@H](c1ccccc1)[C@@H](CO)N2C(=O)CC1CC1	3	-2	4.7
Cc1ccc(-c2ccc([C@H]3[C@H]4CN(C(=O)c5ccncc5)CC(=O)N4[C@H]3CO)cc2)cc1	-9	-10	1.8
O=C(CC1CC1)Nc1ccc2c(c1)[C@H]1C[C@@H](CC(=O)NC3CCCCC3)O[C@H](CO)[C@H]1O2	-2	1	-2.9
O=C(C[C@H]1CC[C@H](NC(=O)c2ccccn2)[C@@H](CO)O1)NCc1cc(F)cc(F)c1	1	0	0.3
CN(C)CCCNC(=O)[C@@H]1[C@@H](CO)[C@@H]2Cn3c(cccc3=O)[C@H]1N2CC1CC1	1	1	-0.5
O=C(c1cccnc1)N1C[C@H]2[C@@H](c3ccccc31)[C@H](CO)N2C(=O)Nc1ccccc1F	1	6	-4.8
CO[C@H]1CN(C)C(=O)c2cc(NC(=O)C3CC3)ccc2OC[C@@H](C)N(Cc2cc(F)ccc2F)C[C@H]1C	1	5	-4.2
O=S(=O)(Cc1ccccc1)N1CC2(C1)[C@H](c1ccccc1)[C@H](CO)N2CC1CCCC1	?	.	.
C[C@@H]1CN([C@H](C)CO)S(=O)(=O)c2ccc(C#C[C@@H](C)O)cc2O[C@H]1CN(C)C(=O)Cc1ccccn1	3	1	1.8
CO[C@@H]1CN(C)C(=O)c2ccc(NC(=O)C3CC3)cc2OC[C@@H](C)N(C(C)=O)C[C@H]1C	-2	0	-2.0
O=C(C[C@@H]1C[C@@H]2c3cc(NC(=O)CC4CC4)ccc3O[C@@H]2[C@@H](CO)O1)NCCc1ccccc1	4	4	-0.5
CO[C@@H](CN(C)C(=O)Nc1ccc(F)cc1)[C@H](C)CN(Cc1ccccc1Cl)[C@@H](C)CO	1	3	-1.3
Cc1ccccc1-c1ccc([C@@H]2[C@@H](CO)N3CCCCN(CC4CC4)C[C@H]23)cc1	?	.	.
COc1ccccc1C(=O)N1C[C@H]2[C@@H](c3ccccc31)[C@H](CO)N2C(=O)C1CCCCC1	-1	0	-1.2
CCN(C[C@H]1[C@H](c2ccc(C3=CCCCC3)cc2)[C@H](CO)N1CC1CC1)C(C)=O	1	5	-3.5

The list continues:
SMILES	DUX4 txn inh	DUX4 txn inh difference	DUX4 txn inh control
COc1cccc(NC(=O)Nc2ccc3c(c2)C(=O)N(C)C[C@H](OC)[C@H](C)CN[C@H](C)CO3)c1	-3	-1	-1.4
COCCNC(=O)C[C@@H]1CC[C@@H]2[C@H](COC[C@H](O)CN2C(=O)Nc2ccccc2OC)O1	5	7	-2.6
C[C@H]1CN([C@@H](C)CO)C(=O)c2ccccc2-c2ccccc2CO[C@@H]1CN(C)C(=O)c1ccncc1	-6	-7	1.2
O=C(C1CCC1)N1CC2(C1)[C@H](c1ccccc1)[C@@H](CO)N2Cc1cncnc1	13	13	0.4
CC(=O)N1C[C@@H]2[C@H](c3ccccc31)[C@H](CO)N2C(=O)CC1CC1	1	2	-1.7
C[C@@H]1CN([C@@H](C)CO)C(=O)CCCn2cc(nn2)CO[C@H]1CN(C)S(=O)(=O)c1ccccc1F	1	1	0.1
CCC(=O)N1[C@H](CN(CC)C(=O)c2cccc(F)c2)[C@@H](c2ccccc2)[C@@H]1CO	5	0	5.1
C[C@H]1CCCCO[C@@H](CN(C)Cc2ccc(C(=O)O)cc2)[C@@H](C)CN([C@@H](C)CO)C(=O)c2cc(NC(=O)NC3CCCCC3)ccc2O1	0	-5	5.1
CO[C@@H]1CN(C)C(=O)c2cc(NS(=O)(=O)CC(F)(F)F)ccc2OC[C@@H](C)N(Cc2cccnc2)C[C@@H]1C	1	1	-0.4
COc1ccc(CN(C)C[C@@H]2OCc3cnnn3CCCC(=O)N([C@H](C)CO)C[C@@H]2C)cc1	6	5	0.4
CN1C(=O)c2cc(NC(=O)c3cccs3)ccc2OC[C@H]2O[C@H](CC(=O)O)CC[C@H]21	1	1	0.1
CO[C@H]1CN(C)C(=O)c2cc(NC(=O)Nc3cccc(F)c3)ccc2OC[C@H](C)N(C(=O)C2CC2)C[C@@H]1C	-1	-4	3.7
O=C(c1ccccn1)N1CC[C@@H]2[C@H]1c1cc(-c3ccc(F)cc3)ccc1N[C@@H]2CO	-7	-4	-2.4
C/C=C/c1ccc([C@H]2[C@@H](CO)N(S(=O)(=O)CC)[C@@H]2CN(C)C(=O)CC)cc1	-3	-5	1.4
CO[C@H]1CN(C)C(=O)c2cc(NC(C)=O)ccc2OC[C@H](C)NC[C@H]1C	-2	-4	2.2
COC(=O)[C@@H]1[C@@H](CO)[C@@H]2Cn3c(ccc(-c4ccncc4)c3=O)[C@@H]2N1CC1CCCC1	7	9	-1.6
C[C@H](CO)N1C[C@H](C)[C@H](CN(C)Cc2ccc(Cl)c(Cl)c2)Oc2c(NS(=O)(=O)c3ccc(F)cc3)cccc2C1=O	-5	-5	-0.7
O=C(C[C@H]1C[C@H]2c3cc(NC(=O)Nc4ccccc4)ccc3O[C@H]2[C@H](CO)O1)NC1CCCC1	9	12	-3.2
O=C(C[C@H]1CC[C@@H]2[C@H](COC[C@@H](O)CN2S(=O)(=O)c2ccccc2)O1)NCc1ccc2c(c1)OCO2	20	6	14
C[C@H](NC(=O)C[C@@H]1CC[C@H]2[C@H](COc3ccc(NC(=O)C4CCOCC4)cc3C(=O)N2C)O1)c1ccccc1	1	-2	2.1
N#C[C@H]1[C@@H](c2ccc(C3=CCCC3)cc2)[C@@H](CO)N1C(=O)NC1CCCCC1	3	6	-2.3
CCCNC(=O)C[C@@H]1CC[C@@H]2[C@@H](COc3ccc(NC(=O)Nc4c(C)noc4C)cc3C(=O)N2C)O1	-2	-6	3.6
CN1C(=O)c2cc(NC(=O)Cc3cccs3)ccc2OC[C@H]2O[C@@H](CC(=O)N[C@H]3CCN(Cc4ccccc4)C3)CC[C@H]21	0	-3	2.2
CC(=O)N(C)C[C@@H]1Oc2cc(-c3ccc(C)cc3)ccc2S(=O)(=O)N([C@H](C)CO)C[C@@H]1C	3	2	1.5
O=C(Cc1cccnc1)N1[C@H](CO)[C@H]2c3ccccc3NC[C@H]21	1	1	-0.2

Compound profiles, from the list above. Values in the order: DUX4 txn inh | DUX4 txn inh difference | DUX4 txn inh control
O=C(C[C@H]1C[C@H]2c3cc(NC(=O)Nc4ccccc4)ccc3O[C@H]2[C@H](CO)O1)NC1CCCC1 in the list: 9 | 12 | -3.2
O=C(C[C@H]1CC[C@@H]2[C@H](COC[C@@H](O)CN2S(=O)(=O)c2ccccc2)O1)NCc1ccc2c(c1)OCO2 in the list: 20 | 6 | 14
N#C[C@H]1[C@@H](c2ccc(C3=CCCC3)cc2)[C@@H](CO)N1C(=O)NC1CCCCC1 in the list: 3 | 6 | -2.3
O=C(C[C@H]1CC[C@H](NC(=O)c2ccccn2)[C@@H](CO)O1)NCc1cc(F)cc(F)c1 in the list: 1 | 0 | 0.3

(further entries)
SMILES	DUX4 txn inh	DUX4 txn inh difference	DUX4 txn inh control
CO[C@H](CN(C)Cc1ccc2c(c1)OCO2)[C@@H](C)CN(C(=O)c1ccccc1)[C@H](C)CO	-1	-2	1.1
N#C[C@@H]1[C@H](c2ccc(C#Cc3ccccc3F)cc2)[C@@H](CO)N1C(=O)c1cccnc1	1	0	0.9
O=C(CCN1CCCCC1)NCC[C@@H]1CC[C@H](NS(=O)(=O)c2cccc(Cl)c2)[C@H](CO)O1	5	13	-7.2
O=C(CC1CC1)N1[C@H](CO)[C@@H](c2ccccc2)C12CN(Cc1cccnc1)C2	-2	-14	12
O=C(C[C@H]1CC[C@@H]2[C@H](COC[C@@H](O)CN2S(=O)(=O)c2ccccc2)O1)N1CCOCC1	2	-2	3.6
CCNC(=O)[C@@H]1[C@@H](CO)[C@@H]2Cn3c(ccc(-c4ccccc4F)c3=O)[C@H]1N2Cc1cccnc1	-1	-2	1.9
CO[C@H]1CN(C)C(=O)c2cc(NC(=O)c3ccc(Oc4ccccc4)cc3)ccc2OC[C@H](C)NC[C@H]1C	?	.	.
N#C[C@H]1[C@@H](c2ccccc2C2=CCCCC2)[C@@H](CO)N1C(=O)c1cccc(F)c1	?	.	.
Cc1cccc(S(=O)(=O)N[C@@H]2CC[C@@H](CCNS(=O)(=O)c3ccccc3F)O[C@@H]2CO)c1	1	0	1.2
O=C(Nc1ccc2c(c1)[C@H]1C[C@H](CC(=O)N3CCCCC3)O[C@@H](CO)[C@H]1O2)C1CCOCC1	4	3	0.9
O=C(O)[C@H]1[C@H](CO)[C@H]2Cn3c(ccc(-c4cccc(F)c4)c3=O)[C@H]2N1C(=O)c1ccccn1	5	6	-1.0
Cc1ccccc1S(=O)(=O)N(C)C[C@@H]1OCc2ccccc2-c2ccccc2C(=O)N([C@H](C)CO)C[C@H]1C	5	9	-4.4
C[C@@H]1CN([C@H](C)CO)C(=O)CCCn2cc(nn2)CO[C@@H]1CN(C)S(=O)(=O)c1ccccc1C#N	2	-1	3.2
C[C@@H](O)C#Cc1ccc([C@@H]2[C@H]3CN(S(=O)(=O)c4ccccc4)CCCCN3[C@H]2CO)cc1	26	13	13
COc1ccccc1NC(=O)N[C@@H]1CC[C@H](CC(=O)N[C@H](C)c2ccccc2)O[C@H]1CO	2	2	0.6
CCCNC(=O)C[C@@H]1C[C@@H]2c3cc(NS(=O)(=O)c4ccc(F)cc4)ccc3O[C@@H]2[C@@H](CO)O1	7	5	2.4
COc1cccc(C#Cc2ccc([C@@H]3[C@H](C#N)N[C@H]3CO)cc2)c1	-3	-4	1.0
CC(=O)N1[C@H](CO)[C@H](c2ccc(C#CC3CCCCC3)cc2)[C@H]1CNCC(C)C	-3	-2	-0.5
COCC(=O)N1CC2(C1)CN(Cc1cccc(OC)c1)[C@@H](CO)c1[nH]c3cc(OC)ccc3c12	-8	-4	-4.3
COc1ccc2c3c([nH]c2c1)[C@@H](CO)N(Cc1ccccc1)CC31CCN(S(C)(=O)=O)CC1	?	.	.
C[C@H](CO)N1C[C@H](C)[C@H](CN(C)C(=O)C2CC2)Oc2cc(-c3ccc(C#N)cc3)ccc2S1(=O)=O	-3	0	-2.7
O=C(NCC[C@H]1CC[C@H](NC(=O)c2ccc3c(c2)OCO3)[C@@H](CO)O1)Nc1cc(F)ccc1F	-2	0	-1.9
CN(C)C(=O)C[C@H]1C=C[C@H](NC(=O)Nc2cccc(F)c2)[C@H](CO)O1	5	4	1.1
COc1ccc2c3c([nH]c2c1)[C@@H](CO)NCC31CCN(C(=O)Nc2ccccc2F)CC1	9	-6	15
COC(=O)C[C@H]1C[C@@H]2c3cc(NC(=O)CC4CC4)ccc3O[C@@H]2[C@H](CO)O1	2	1	1.8

Given with bars between the fields: part of the list above
SMILES | DUX4 txn inh | DUX4 txn inh difference | DUX4 txn inh control
CC(=O)N1[C@H](CO)[C@H](c2ccc(C#CC3CCCCC3)cc2)[C@H]1CNCC(C)C | -3 | -2 | -0.5
COCC(=O)N1CC2(C1)CN(Cc1cccc(OC)c1)[C@@H](CO)c1[nH]c3cc(OC)ccc3c12 | -8 | -4 | -4.3
COc1ccc2c3c([nH]c2c1)[C@@H](CO)N(Cc1ccccc1)CC31CCN(S(C)(=O)=O)CC1 | ? | . | .

Going on with the list:
SMILES	DUX4 txn inh	DUX4 txn inh difference	DUX4 txn inh control
C[C@@H]1CN([C@@H](C)CO)C(=O)c2cc(C3=CCCC3)cnc2O[C@H]1CN(C)C(=O)c1ccc2c(c1)OCO2	-4	13	-17
Cc1ccccc1S(=O)(=O)N1CC(=O)N2[C@H](CO)[C@H](c3ccc(C#CCC4CCCC4)cc3)[C@@H]2C1	-3	-9	6.1
CCCNC(=O)N1C[C@@H]2[C@H](c3ccccc31)[C@H](CO)N2C(=O)C1CCOCC1	4	2	1.3
CCC(=O)N1CC(=O)N2[C@@H](CO)[C@@H](c3ccc(C#Cc4cccc(F)c4)cc3)[C@@H]2C1	4	28	-24
COCC(=O)N1CC(=O)N2[C@H](CO)[C@@H](c3ccc(-c4cccnc4)cc3)[C@@H]2C1	11	5	6.3
O=C1C[C@H](c2ccccc2)C(=O)N[C@H](c2ccccc2)C/C=C\C[C@H](c2ccccc2)N1	-3	-3	0.4

Compound activity deposited in PubChem BioAssay by Broad Institute.

Some of the compounds tested; count on the stated rates, not on these rows.
